# Assay outcomes deposited in PubChem by National Center for Advancing Translational Sciences (NCATS).
# EPAC2 ant val: human EPAC2 antagonism, validation; EPAC2 Rap1B BODIPY-GDP exchange, fluorescence; Potency, µM (doses to about 112 µM), inactives show at the top dose activity, negative = inhibition, hits mostly inhibitors; 16,000 tested, 1.7% active; active means well fitted inhibition curve with a large enough effect; inconclusive means small, poorly fitted or top-dose-only effect; inactive means no such curve, though single readings can be large or run the other way;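 further: 100% = activation by cAMP agonist control; nearly all actives have a fitted effect of over 40% in size; the record reuses the description of the EPAC1 agonist screen; inactives centre near -10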
# Target sequence (Q8WZA2 whole entry, looked up): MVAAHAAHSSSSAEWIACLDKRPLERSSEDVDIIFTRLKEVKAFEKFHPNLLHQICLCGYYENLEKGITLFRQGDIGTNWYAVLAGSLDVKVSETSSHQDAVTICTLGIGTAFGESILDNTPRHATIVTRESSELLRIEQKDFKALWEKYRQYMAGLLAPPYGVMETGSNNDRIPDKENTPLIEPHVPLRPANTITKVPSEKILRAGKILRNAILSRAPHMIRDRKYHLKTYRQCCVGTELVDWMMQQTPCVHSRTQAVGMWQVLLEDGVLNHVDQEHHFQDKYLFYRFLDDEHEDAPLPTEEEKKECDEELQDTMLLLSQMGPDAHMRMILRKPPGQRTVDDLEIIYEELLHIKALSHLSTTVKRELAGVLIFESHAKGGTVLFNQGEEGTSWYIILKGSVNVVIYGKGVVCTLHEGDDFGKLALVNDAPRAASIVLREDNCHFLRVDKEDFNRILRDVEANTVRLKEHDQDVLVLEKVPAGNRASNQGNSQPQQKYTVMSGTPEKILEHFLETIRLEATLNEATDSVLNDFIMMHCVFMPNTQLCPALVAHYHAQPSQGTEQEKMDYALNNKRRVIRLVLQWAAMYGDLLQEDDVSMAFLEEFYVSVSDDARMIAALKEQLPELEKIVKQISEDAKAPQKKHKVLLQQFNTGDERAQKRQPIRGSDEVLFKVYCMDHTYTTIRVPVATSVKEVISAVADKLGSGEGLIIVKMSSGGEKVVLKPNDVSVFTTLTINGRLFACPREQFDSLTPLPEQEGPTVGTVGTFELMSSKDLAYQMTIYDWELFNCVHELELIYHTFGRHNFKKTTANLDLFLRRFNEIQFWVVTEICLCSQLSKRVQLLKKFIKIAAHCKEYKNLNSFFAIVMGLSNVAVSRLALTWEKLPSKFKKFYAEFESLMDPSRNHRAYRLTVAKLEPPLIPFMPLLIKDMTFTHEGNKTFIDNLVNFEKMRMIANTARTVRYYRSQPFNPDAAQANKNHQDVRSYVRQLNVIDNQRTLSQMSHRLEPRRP
#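 Fluorescent exchange read-out: 100 nM EPAC2 with 250 nM RAP1B–BODIPY-GDP and 50 uM GDP; BODIPY-GDP release lowers fluorescence. Read at 480/540 nm every 5 min for 30 min at room temperature; normalized to 6.5 mM cAMP.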
# * hit, by the source's call; ? = inconclusive; & = joins results of further samples; [ ] = remark or other dose. Potency means the concentration at half of the fitted maximal effect. This is a subset (hit frequency here may not be typical).
SMILES,EPAC2 ant val
Cc1nc(NS(=O)(=O)c2ccc(N)cc2)nc(C)c1Br,-1.4%
CCS(=O)(=O)NCc1c(C)ncc2c1CCN(C(=O)c1csc(-c3cccs3)n1)C2,-11.8%
CN(c1ccccc1)S(=O)(=O)c1ccccc1Br,?
C[C@H](NC(=O)CNC(=O)[C@@H](NC(=O)[C@H](Cc1ccccc1)NC(=O)CNC(=O)CNC(=O)[C@@H](N)Cc1ccccc1)[C@@H](C)O)C(=O)N[C@@H](CCCN=C(N)N)C(=O)N[C@@H](CCCCN)C(=O)N[C@@H](CO)C(=O)N[C@@H](C)C(=O)N[C@@H](CCCN=C(N)N)C(=O)N[C@H](CN)CCCCN,-1.9%[11.4 µM]
COc1ccc2c(c1)-c1nc(-n3ncc(C(=O)NCc4cccc(C)n4)c3C3CC3)ncc1CC2,-3.4%
C/C1=C2N=C(/C=C3N=C(/C(C)=C4\[N-]C(C(CC(N)=O)C4(C)CCC(=O)NCC(C)OP(=O)([O-])OC4C(CO)OC(n5cnc6cc(C)c(C)cc65)C4O)C4(C)N=C1C(CCC(N)=O)C4(C)CC(N)=O)C(CCC(N)=O)C\3(C)C)C(CCC(N)=O)C/2(C)CC(N)=O.[CH3-].[Co+3] (stereo not given),10µM*
O=C(c1cnccn1)N1CCC2(CCCN(c3ncccn3)C2)CC1,-28.0%
C[C@@H]1CCN=C(N)S1,-32.2%
CCn1c(-c2ccccc2F)nc2cc(NC(C)=O)cc(C(=O)N(C)Cc3c(C)nc4ccccn34)c21,-4.3%
C#C[C@]1(O)CCC2C3CCC4=C(CCC(=O)C4)C3CC[C@@]21C (stereo not given in full),-11.4%
O=CCCCC=O,4.3%
CC(C)C[C@@H](CO)N(Cc1ccccc1)S(=O)(=O)N(Cc1ccccc1)[C@H](CO)CC(C)C,?
COc1cc(-c2cc(C)c3cccc(OC)c3n2)cc2c1OCCN(C(=O)CCn1nc(C)cc1C)C2,-30.7%
CC(=O)OCC(=O)Nc1cc(C#N)cc(NC(=O)COC(C)=O)c1Cl,20.4%
Cc1ccc(F)cc1S(=O)(=O)NCc1nc(N2CCCC2)c2cccc(C)c2n1,-29.9%
COc1ccc(CCN(C)CCCOc2ccc(S(=O)(=O)c3[nH]c4ccccc4c3C(C)C)cc2)cc1OC,?
Cc1cccc2nc(CNC(=O)CN3Cc4ccccc4OC(c4ccccc4F)C3)cn12 (stereo not given),-7.2%
Cn1nccc1C(=O)NCC1CCC2(CCN(Cc3ccc(-c4ccc(Cl)cc4)o3)CC2)O1 (stereo not given),-10.3%
O=C(Oc1ccccc1)N1CCC[C@@]2(CCN(c3ncccn3)C2)C1,-15.8%
[C-]#[N+]c1cc(-c2ccncc2)c(C)[nH]c1=O,-9.8%[239 µM]
CCOC(=O)[C@@](C)(N)Cc1ccc(O)c(O)c1,6.1%[56.6 µM]
COc1ccc(OC)c(CN2CCOc3ccc(CN4CCC(O)(c5cccnc5)CC4)cc3C2)c1,-9.0%
O=C(NCc1nnc2n1CCN(Cc1cccc(Cl)c1)CC2)c1cccc(F)c1,-39.0%
CSC(=N)N,?
CCC(=O)OCC(=O)[C@@]1(OC(=O)CC)[C@H](C)C[C@H]2[C@H]3[C@H]([C@@H](O)C[C@@]21C)[C@@]1(C)C=CC(=O)C=C1C[C@H]3Cl,-10.2%[56.6 µM]

# Other results follow.
SMILES,EPAC2 ant val
c1cncc(CNc2nc(-c3cccnc3)nc3ccccc23)c1,-11.2%
COc1cccc(Cn2c(=O)c(-c3cccs3)nc3cncnc32)c1,-8.3%
COc1ccccc1-c1nc(NCc2cccs2)c2ccccc2n1,-23.5%
COc1cc(C(=S)N2CCOCC2)ccc1O,8.7%
CC(C)[C@H](CO)Nc1nc(Nc2cccc(Cl)c2)c2ncn(C(C)C)c2n1,?
O=C(c1cc(C(F)(F)F)cc(C(F)(F)F)c1)N1CCC[C@@]2(CCN(Cc3ccncc3)C2)C1,-41.3%
O=c1c(O)c(-c2cccc(O)c2)oc2ccccc12,-15.7%
COc1ccc(-c2nc3cc(F)ccc3cc2CN(C(=O)c2ccc3c(c2)OCO3)C2CC2)cc1,-17.2%
Cc1cccc(C)c1OCC(N)C(C)C (stereo not given),9.9%
CN1CCN(C2=Cc3ccccc3Oc3ccc(Cl)cc32)CC1,?
CC(CN1CCc2nnc(CNC(=O)c3cccc(F)c3)n2CC1)c1ccccc1 (stereo not given),-23.6%
COc1ccc(NC(=O)N2CCC3(CC2)CCN(C(=O)c2cnccn2)CC3)cc1,-10.6%
NC/C=C\C(=O)O,-5.0%&-1.6%&-3.9%
CN(C)C(=O)Nc1ccc(Cl)c(Cl)c1,-16.3%
Cc1nc2cnc(Oc3ccccc3)nc2n(C)c1=O,-16.2%
CCN(CC)C(C)CN1c2ccccc2Sc2ccccc21 (stereo not given),?
CN1CCN(c2ncncc2-c2ccc(N(C)C)cc2)CC1,-2.1%
CCCn1c(=O)[nH]c(=O)c2[nH]cnc21,-5.0%&32.9%
O=C(CN1Cc2ccccc2OC(c2ccsc2)C1)N1CCN(Cc2ccc3c(c2)OCO3)CC1 (stereo not given),56.2µM*
Cc1c(C(N)=O)cc([N+](=O)[O-])cc1[N+](=O)[O-],?
NC(Cc1cc(I)c(Oc2ccc(O)c(I)c2)c(I)c1)C(=O)O (stereo not given),-19.3%
CCC1CN(CCNC(=O)c2cc(C)nn2CC)Cc2cc(OC)ccc2O1 (stereo not given),-12.7%
CCn1c(-c2cccnc2)nc2cc(NC(=O)COC)cc(C(=O)N3CCc4ccccc4C3)c21,3.3%
COc1ccc(-n2c(CNC(=O)c3cccc4ccccc34)nnc2SC)cc1,-16.7%
O=C(O)C1CN(CCCP(=O)(O)O)CCN1 (stereo not given),-28.3%

# New compounds follow:
SMILES,EPAC2 ant val
COc1cccc(Cn2c(=O)c(-c3ccc(F)cc3)nc3cnc(N(C)C)nc32)c1,1.5%
O=C(O)/C=C(\CC(=O)O)C(=O)O,3.5%&7.6%
COC1=C(OC)C(=O)C(CCCCCCCCCCO)=C(C)C1=O,-29.4%
CC1(C)Oc2ccc3ccc(=O)oc3c2CC1=O,13.0%
CC(C)C(=O)OCC(=O)[C@@]12O[C@H](C3CCCCC3)O[C@@H]1C[C@H]1[C@@H]3CCC4=CC(=O)C=C[C@]4(C)[C@H]3[C@@H](O)C[C@@]12C,3.5%
CC(C)NC(=O)N1CC[C@@]2(CCCN(C(=O)c3ccncc3)C2)C1,-25.3%
O=c1cnc2cncnc2n1Cc1ccccc1Cl,16.5%
O=c1c(O)c(-c2ccc(O)cc2)oc2ccc(O)cc12,-11.3%
N#CCCn1c(=O)c(-c2ccc(F)cc2)nc2cnc(OCc3ccccc3)nc21,-9.6%
Cc1noc(C)c1-c1ccc2ncnc(N3CCC(C(=O)O)CC3)c2c1,-10.7%
O=C(/C=C/c1ccccc1)OC1CC(O)C2(O)C=CO[C@@H](OC3OC(CO)C(O)C(O)C3O)C12 (stereo not given in full),0.0%
N#CCCn1c(=O)c(-c2cccs2)nc2cnc(Oc3ccccc3)nc21,-16.8%
CNC(=O)c1cc(Oc2ccc(NC(=O)Nc3ccc(Cl)c(C(F)(F)F)c3)cc2)ccn1,?
C[N+]1(C)C2CCC1CC(OC(=O)C(O)c1ccccc1)C2 (stereo not given),-8.8%
COc1cc(CNS(=O)(=O)CCl)cc(OC)c1OC,11.1%
CCC1(C2CCN(C(=O)c3ccccc3Cl)CC2)NC(=O)N(CCc2scnc2C)C1=O (stereo not given),-2.8%
O=C(NCCCN1CCCCCC1)C(c1ccccc1)C1CCCCC1 (stereo not given),-11.5%
C/C=C1\NC(=O)[C@H]2CSSCC/C=C/[C@H](CC(=O)N[C@H](C(C)C)C(=O)N2)OC(=O)C(C(C)C)NC1=O (stereo not given in full),-15.0%
COc1ccc(-c2oc3ccccc3c(=O)c2O)cc1,-10.4%
C[C@@H]1CCC(=O)N(C[C@@H](C)CSc2ccccc2)CC1,?
CCCCCCCN(CC)CCCC(O)c1ccc(NS(C)(=O)=O)cc1 (stereo not given),-26.8%
CCOC(C)=O,-24.5%
CCOC(=O)/C=C(C)/C=C/C=C(C)/C=C/c1c(C)cc(OC)c(C)c1C,?
O=c1c(-c2ccccc2)nc2cnc(N3CCOCC3)nc2n1-c1ccccc1,-16.9%
Cc1cnc(C)c(-c2cc(F)cc3c2OC(CNC(=O)c2cc(Cl)ccc2F)C3)n1 (stereo not given),0.2%

# Copied from the list:
# N#CCCn1c(=O)c(-c2cccs2)nc2cnc(Oc3ccccc3)nc21 | EPAC2 ant val = -16.8%
# O=c1c(-c2ccccc2)nc2cnc(N3CCOCC3)nc2n1-c1ccccc1 | EPAC2 ant val = -16.9%
# COc1cccc(Cn2c(=O)c(-c3ccc(F)cc3)nc3cnc(N(C)C)nc32)c1 | EPAC2 ant val = 1.5%
# CC(C)NC(=O)N1CC[C@@]2(CCCN(C(=O)c3ccncc3)C2)C1 | EPAC2 ant val = -25.3%

# New compounds follow.
SMILES,EPAC2 ant val
O=[N+]([O-])c1ccc(O)c2ncccc12,-32.8%
Cc1ncc2c(c1CNC(=O)/C=C/c1cccs1)CCN(C(=O)C1CCCO1)C2 (stereo not given),-27.0%
CCCCC(=O)O,20.0%&2.4%
N[C@@]1(C(=O)O)CN[C@@H](C(=O)O)C1,-9.5%
COCc1c(C(=O)N2CCN(C3CCCC3)CC2)cnn1-c1nccc(-c2cccs2)n1,-4.2%
COc1ccc(NC(=O)N2CCCC3(CCN(C(=O)c4cccn4C)CC3)C2)cc1,-17.8%
Cc1cc(Cl)ccc1OCC(=O)NCC1Cc2cc(-c3cnccn3)ccc2O1 (stereo not given),-20.5%
C[C@@]12CCC3c4ccc(OS(=O)(=O)O)cc4CCC3C1CCC2O (stereo not given in full),-5.5%
O=C(c1cnccn1)N1CCC[C@@]2(CCN(Cc3ccccc3)C2)C1,-21.1%
CC1(C)[C@@H](O)CC[C@]2(C)[C@H]3C(=O)C=C4[C@@H]5C[C@@](C)(C(=O)O)CC[C@]5(C)CC[C@@]4(C)[C@]3(C)CC[C@@H]12,1.58µM*
CN1CCN(c2ncc3nc(-c4cn(C)c5ccccc45)c(=O)n(CCc4ccccc4)c3n2)CC1,-25.0%
Cc1ccc(C(=O)Nc2cccc(-c3nc(CNC(=O)c4cccc(N(C)C)c4)c(C)o3)c2)s1,3.1%
CC(=O)Nc1cccc(O)c1,442.6%[activator]
O=C(Nc1ccccc1)N1CCC2(CC1)CCN(C(=O)c1csnn1)CC2,-8.9%
C=Cc1ccc(C(=O)N2CCc3c(cnc(C)c3CNC(=O)c3ccc4c(c3)OCO4)C2)cc1,1.8%
COc1ccc(/C=C/C(=O)/C=C/c2ccc(OC)cc2OC)c(OC)c1,5.4%
COc1cc(=O)n2c(c1C(=O)NC(C)c1ccco1)CCN(C(=O)c1[nH]c(C)cc1C)CC2 (stereo not given),5.9%
O=C(c1cnccn1)N1CCC2(CCCN(c3ccc(-c4ccccc4)cc3)C2)CC1,-10.6%
COCC(=O)Nc1cc(C(=O)N2CCCC2c2nccs2)c2c(c1)nc(-c1ccncc1)n2C (stereo not given),-0.9%
CCOC(=O)OC(C)OC(=O)[C@@H]1N2C(=O)[C@@H](NC(=O)[C@H](N)c3ccccc3)[C@H]2SC1(C)C (stereo not given in full),5.4%[56.6 µM]
CC(=O)OC(C)OC(=O)C(C)c1ccc(-c2ccccc2)c(F)c1 (stereo not given),-10.1%&14.9%
COc1cc([C@@H]2c3cc4c(cc3[C@@H](O[C@@H]3O[C@@H]5CO[C@@H](C)O[C@@H]5[C@H](O)[C@@H]3O)[C@H]3COC(=O)[C@H]23)OCO4)cc(OC)c1O,-10.5%[29.6 µM]
CC[N+](C)(CC)CCOC(=O)C1c2ccccc2Oc2ccccc21,18.8%
COc1ccccc1CNc1nc(-c2ccccc2OC)nc2ccccc12,-29.7%
COC(=O)c1cc(-c2c(-c3ccc4c(c3)OCO4)noc2-c2ccsc2)cc([N+](=O)[O-])c1,-9.3%

# (listing goes on)
SMILES,EPAC2 ant val
C[C@@H]1C[C@H]2[C@@H]3CCC4=CC(=O)C=C[C@]4(C)[C@@]3(F)[C@@H](O)C[C@]2(C)[C@@]1(O)C(=O)COP(=O)(O)O,13.0%
NCC1CCCCC1CC(=O)O (stereo not given),-9.0%
CC(=O)OC1CC2C(C)(C)C(=O)[C@@H]3OC3[C@@]2(C)C2CC[C@]3(C)C(=CC(=O)OC3c3ccoc3)[C@]12C (stereo not given in full),-3.6%
Clc1ccccc1-c1nccc(-n2ccnc2)n1,-21.2%
COc1ccc(C2c3cc(OC)c(OC)cc3Cc3c4cc(OC)c(OC)cc4cc[n+]32)cc1OC (stereo not given),29.9%
c1ccc(CNc2ccnc(-c3cccnc3)n2)cc1,-20.5%
O=c1c(CCc2ccccc2)nc2cnc(N3CCOCC3)nc2n1C1CC1,3.8%
COc1ccc2[nH]cc(CCNc3ncncc3-c3cccc(NS(C)(=O)=O)c3)c2c1,-29.5%
O=C(O)c1cc(O)c(O)c(O)c1,13.3%&6.7%
c1cncc(-c2nc(NCCN3CCOCC3)c3ccccc3n2)c1,-12.3%
COc1cccc(CNC(=O)c2c(OC)cc(=O)n3c2CCN(C(=O)c2cc(F)cc(F)c2)CC3)c1,-15.8%
CCCC(=O)Nc1c(I)cc(I)c(CC(CC)C(=O)O)c1I (stereo not given),13.1%

# Copied from the entries so far (5 entries):
SMILES,EPAC2 ant val
C[C@@H]1C[C@H]2[C@@H]3CCC4=CC(=O)C=C[C@]4(C)[C@@]3(F)[C@@H](O)C[C@]2(C)[C@@]1(O)C(=O)COP(=O)(O)O,13.0%
NCC1CCCCC1CC(=O)O (stereo not given),-9.0%
CC(=O)OC1CC2C(C)(C)C(=O)[C@@H]3OC3[C@@]2(C)C2CC[C@]3(C)C(=CC(=O)OC3c3ccoc3)[C@]12C (stereo not given in full),-3.6%
Clc1ccccc1-c1nccc(-n2ccnc2)n1,-21.2%
COc1ccc(C2c3cc(OC)c(OC)cc3Cc3c4cc(OC)c(OC)cc4cc[n+]32)cc1OC (stereo not given),29.9%
